Compound activity (PubChem BioAssay)
D2 potentiator: positive allosteric modulators of human D2 dopamine receptor; 360,000 compounds, 0.23% hits; DiscoveRx D2 beta-arrestin cells, luminescence, 90 min; 100% = 57 uM dopamine signal; AID 624464; potentiation, % (test concentration not listed); active = potentiation of 50% or more; inconclusive = 30% to 50%; inactive = 30% or less;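 note: compound concentration not given in the record; tested on top of an EC20 dose of dopamine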
Target sequence (P14416 whole entry, looked up): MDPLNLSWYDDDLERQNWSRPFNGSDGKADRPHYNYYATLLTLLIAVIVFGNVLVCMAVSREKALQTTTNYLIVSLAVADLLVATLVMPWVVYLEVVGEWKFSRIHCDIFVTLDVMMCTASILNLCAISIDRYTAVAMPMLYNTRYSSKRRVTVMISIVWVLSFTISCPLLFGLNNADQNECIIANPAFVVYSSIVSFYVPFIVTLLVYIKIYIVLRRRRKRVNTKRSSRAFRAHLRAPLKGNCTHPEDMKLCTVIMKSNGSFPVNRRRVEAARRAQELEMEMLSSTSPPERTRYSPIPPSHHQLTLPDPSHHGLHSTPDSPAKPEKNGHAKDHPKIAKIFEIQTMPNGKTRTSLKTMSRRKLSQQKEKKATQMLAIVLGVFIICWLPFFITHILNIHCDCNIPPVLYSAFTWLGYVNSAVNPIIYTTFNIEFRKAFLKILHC
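PathHunter beta-arrestin assay in DiscoveRx D2 cells. Compounds were added with an EC20 of dopamine (50 nM final) for 90 min at 37 deg C. Luminescence was read 1 h after detection reagent, with 57 uM dopamine as the EC100 control.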
Sfp PPTase inh: Sfp phosphopantetheinyl transferase inhibition | 310,000 compounds, 3.5% hits | Potency, µM, for the others: max response, negative = inhibition, most hits filed as inhibitors | AID 1490 | Biochemical Sfp PPTase activity, qHTS | Q9F4F7; active = well fitted inhibition curve with a large enough effect; inconclusive = small, poorly fitted or top-dose-only effect, or another doubt; inactive = no such curve, though single readings can be large or run the other way;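 note: the enzyme is Sfp with the accession as filed and its product quenches rhodamine fluorescence; potency is the fitted concentration of half-maximal effect; 0% = enzyme reaction without inhibitor and -100% = no enzyme wells; top concentration of the series not given in the record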
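Fluorescence-quenching assay with 15 nM Sfp, 5 uM rhodamine-CoA and 12.5 uM BHQ-2-labelled ybbR peptide in pH 7.6 Hepes/MgCl2 buffer. Enzyme was pre-incubated with compound for 15 min at room temperature. Rate was taken from the 30-min fluorescence change (525/598 nm).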
ClpP mod: qHTS Assay for Activators of ClpP; purified B. subtilis ClpP, FRET peptide cleavage, 20 min; ATP-dependent Clp protease proteolytic subunit (Bacillus subtilis (strain 168)), P80244; 340,000 compounds, 1.9% hits; Potency, µM (series often up to 57.5 µM), without a hit: at the highest dose activity change, negative = active; AID 651965, 2013; active = well fitted falling curve with a large enough effect; inconclusive = small, poorly fitted or top-dose-only effect; inactive = no such curve, though single readings can be large or run the other way; note: potency is the fitted concentration of half-maximal effect; the source files actives as falling curves though it sought activators and does not explain the sign; nearly all actives have a fitted effect of over 65% in size; many hits overshoot -100%
Target sequence (P80244 whole entry, looked up): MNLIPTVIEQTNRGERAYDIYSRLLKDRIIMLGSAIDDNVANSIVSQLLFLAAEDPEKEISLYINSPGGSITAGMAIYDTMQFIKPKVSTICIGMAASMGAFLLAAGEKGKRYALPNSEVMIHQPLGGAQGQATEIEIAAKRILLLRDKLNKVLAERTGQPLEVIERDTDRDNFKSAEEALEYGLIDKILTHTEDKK
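Buffer: 100 mM Tris/HCl pH8, 100 mM KCl, 0.05% low protease BSA, 2.5% glycerol, 0.01% Tween-20. ClpP 10 microg/mL final; 20 min RT; delta FRET normalized to ADEP and DMSO controls.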
gsp ag: agonists of gsp mutant (McCune-Albright syndrome); AID 624287; gsp mutant cells, cAMP HTRF, 30 min; control for the full effect not named in the record; Potency, µM (highest dose often 76.9 µM), inactives show top-dose activation (cAMP increase), usual class: activators; 340,000 compounds, 0.13% hits; active = well fitted activation curve with a large enough effect; inconclusive = small, poorly fitted or top-dose-only effect, or another doubt; inactive = no such curve, though single readings can be large or run the other way; cell line not stated here;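 note: phosphodiesterase inhibitor Ro 20-1724 added with compounds to block cAMP breakdown; potency is the fitted concentration of half-maximal effect; nearly all actives have a fitted effect of over 60% in size; about a fifth of the inactives were tested at one dose only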
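Cells stably selected in G418 were plated at 2000/well, grown 16-24 hr, then given compounds in DMSO with the PDE inhibitor […] (300 uM solution added) for 30 min at 37C; cAMP was read by HTRF.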
Menin-MLL FL inh: inhibitors of human menin-MLL interaction, wild-type MLL peptide | 290,000 tested, under 10 active | AID 1766 | FP activity change, % at 61.4 µM | Fluorescence polarization, fluorescein-MLL peptide displacement from menin; inconclusive = falling polarisation curve, or a change in total fluorescence; inactive = total fluorescence flat and polarisation flat or rising; no compound was filed as active; the % refers to the polarisation; negative = inhibition;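 note: % of control where 0% means no effect; inhibitors lower the polarisation; unlabelled MLL peptide was the positive control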
gsp antag: antagonizes gsp, the McCune-Albright syndrome mutation. gsp-mutant cells, cAMP HTRF, 30 min; control for the full effect not named in the record. Potency, µM (top dose mostly 76.9 µM), without a hit: at the top dose activity change, negative = inhibition, hits mostly inhibitors. 340,000 compounds, 0.4% hits; active = falling curve of any shape with a large fitted effect; inconclusive = falling curve, mostly with a smaller effect; inactive = flat or rising curve; cell line not stated here;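 note: intracellular cAMP measured with PDE inhibitor Ro 20-1724 present during compound exposure; potency is the fitted concentration of half-maximal effect; % is set by controls: 0 for no effect and ±100 for the full control effect; nearly all actives have a fitted effect of over 65% in size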
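Cells, 2000/well, grown 16–24 h in DMEM 10% FBS with 0.5 mg/ml G418, then compounds plus […] (300 uM addition stock), 30 min at 37C. cAMP read by HTRF (cAMP-d2 and anti-cAMP antibody-K in lysis buffer) after 30 min RT.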
TRPV1 PAM: potentiators of human vanilloid receptor 1 (TRPV1); potentiation, % at 8.33 µM; Q8NER1; 320,000 compounds, 0.02% hits; TRPV1-expressing cells, Fluo-8 calcium influx, capsaicin EC20 potentiation; host cell line not named in the record; control for the full effect not named in the record; AID 540277; active means potentiation above 80%; inconclusive means 30% to 80%; inactive means below 30%; note: 0% is about no effect
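TRPV1-expressing cells were cultured overnight at 35.5C and loaded with Fluo-8 calcium dye for 40 to 90 min at room temperature. After a 10 s baseline, compound was added and calcium influx was read kinetically for 3 min (ex 480/em 520 nm).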
An asterisk follows results filed as active; ? = inconclusive; / = not tested or not shown; & = joins results of further samples; [ ] = remark or other dose.

A first look:
1: COc1ccc(S(=O)(=O)N2CCN(CC(=O)N3c4ccccc4CC3C)CC2)cc1OC (stereo unspecified)
2: COc1ccc(NC(=O)N2CCN(C(=O)C(Cc3ccc(F)cc3)NC(C)=O)CC2)cc1 (stereo unspecified)
3: O=C(NC(=S)Nc1cc([N+](=O)[O-])ccc1O)c1cccnc1
Screen / compound no.	1	2	3
D2 potentiator	1	5	-5
Sfp PPTase inh	/	9%	-63%
ClpP mod	-0.6%	32µM*	0.7%
gsp ag	17%[15.4 µM]	-9%[15.4 µM]	?
Menin-MLL FL inh	/	17	2.6
gsp antag	-13%	5%	-17%
TRPV1 PAM	7	7	9

Results, from the first entry:
1: COc1ccc(S(=O)(=O)N2CCN(CC(=O)N3c4ccccc4CC3C)CC2)cc1OC (stereo unspecified)
2: COc1ccc(NC(=O)N2CCN(C(=O)C(Cc3ccc(F)cc3)NC(C)=O)CC2)cc1 (stereo unspecified)
3: O=C(NC(=S)Nc1cc([N+](=O)[O-])ccc1O)c1cccnc1
4: O=C(CNC(=O)c1cc(Cl)cc([N+](=O)[O-])c1)NC1CC1
5: NC(=O)COC(=O)c1cccc2c1-c1ccccc1C2=O
6: COc1ccc(C2C3=C(CCCC3=O)N(CC(=O)O)C3=C2C(=O)CCC3)cc1Br
7: CC1=C(C(=O)OC2CCCCC2)C(c2ccc(N(C)C)cc2)NC(=O)N1 (stereo unspecified)
8: Cc1noc(C)c1C(=O)N1CCN(c2ncccn2)CC1
Screen / compound no.	1	2	3	4	5	6	7	8
D2 potentiator	1	5	-5	0	-1	-6	-3	-8
Sfp PPTase inh	/	9%	-63%	/	14%	/	14%	12%
ClpP mod	-0.6%	32µM*	0.7%	-0.8%	/	3.9%	-0.7%	-26%
gsp ag	17%[15.4 µM]	-9%[15.4 µM]	?	13%	14%	2%	-1%	-38%
Menin-MLL FL inh	/	17	2.6	/	-1.4	/	-0.4	3.0
gsp antag	-13%	5%	-17%	9%	-1%	/	8%	10%
TRPV1 PAM	7	7	9	/	7	/	13	-3

9: COc1ccc(-c2cn3c(C)c(C(=O)N4CCN(c5ccccc5)CC4)sc3n2)cc1
10: O=c1[nH]c(CSc2nnc(-c3cccnc3)n2C2CCCCC2)nc2ccccc12
11: COc1ccccc1CN(C)CC(=O)Nc1ccccc1-c1ccccc1
12: CC(C)CNC(=O)COc1ccccc1[N+](=O)[O-]
13: CCOc1ccc(CCNc2nc3ccccc3n3c(C)nnc23)cc1OCC
14: COc1ccc(CN2C(=O)c3cccnc3C2Nc2cc(Cl)ccc2OC)cc1 (stereo unspecified)
15: Cc1ccc(Nc2nnc(SC(C)C(=O)Nc3c(C)n(C)n(-c4ccccc4)c3=O)s2)cc1 (stereo unspecified)
16: COc1cccc(NC(=S)N(CCc2c(C)[nH]c3ccccc23)Cc2ccco2)c1
Screen / compound no.	9	10	11	12	13	14	15	16
D2 potentiator	0	-6	5	10	-7	-12	-23	-8
Sfp PPTase inh	/	15%	-23%	26%	2%	2%	20%	20%
ClpP mod	-3.6%	-7.1%	/	-14%	-28%&-4.2%	-1.0%	-2.0%	0.5%
gsp ag	-52%[inhibitor]	-110%[inhibitor]	-17%[15.4 µM]	7%	-40%	19%	-18%	-1%
Menin-MLL FL inh	/	-0.1	-1.3	7.8	0.7	3.3	-1.4	0.0
gsp antag	-2%	-3%	/	10%	6%	-6%	3%	-22%
TRPV1 PAM	/	0	-7	-4	3	11	-8	7

17: COC(=O)c1cc(Br)c(=O)n(Cc2ccc(C(=O)O)cc2)c1
18: Oc1cccc(/C=N/NC(=S)Nc2cccnc2)c1O
19: Cc1ccc2c(CC(=O)NCC3(N4CCOCC4)CCCCC3)coc2c1C
20: CC(=O)N1CCc2cc(S(=O)(=O)CCC(=O)Nc3ccc4c(c3)OCCO4)ccc21
21: O=C(/C=C/c1ccccc1)N1CCN(c2cccc(Cl)n2)CC1
22: CCOc1ccc(NC(=O)C2CC(=O)N(c3ccc4c(c3)OCCO4)C2)cc1OCC (stereo unspecified)
23: Cc1ccc(S(=O)(=O)N2CCN(Cc3cccc(F)c3)CC2)cc1
24: NNC(=O)CNC(=O)CNS(=O)(=O)c1ccccc1
Screen / compound no.	17	18	19	20	21	22	23	24
D2 potentiator	-3	-10	-4	12	-12	8	-11	-6
Sfp PPTase inh	13%	?	/	12%	-1%	/	/	22%
ClpP mod	-16%	-0.2%	0.9%	0.7%	0.7%	-0.9%	/	/
gsp ag	-46%[inhibitor]	1%[15.4 µM]	-2%	4%	-8%	18%	2%[15.4 µM]	-18%[15.4 µM]
Menin-MLL FL inh	1.3	22	/	2.0	3.6	/	/	-2.9
gsp antag	8%	-8%	-9%	13%	-24%	-2%	-3%	13%
TRPV1 PAM	4	-2	-6	-3	-3	0	/	1

Ordered by the number under gsp antag (ascending): five of the compounds above
| cpd | structure | gsp antag |
| --- | --- | --- |
| 19 | Cc1ccc2c(CC(=O)NCC3(N4CCOCC4)CCCCC3)coc2c1C | -9% |
| 18 | Oc1cccc(/C=N/NC(=S)Nc2cccnc2)c1O | -8% |
| 23 | Cc1ccc(S(=O)(=O)N2CCN(Cc3cccc(F)c3)CC2)cc1 | -3% |
| 17 | COC(=O)c1cc(Br)c(=O)n(Cc2ccc(C(=O)O)cc2)c1 | 8% |
| 24 | NNC(=O)CNC(=O)CNS(=O)(=O)c1ccccc1 | 13% |

Following part
25: O=C(CSc1nnc(CNC(=O)c2c(F)cccc2F)o1)NCc1ccc(F)cc1
26: Cc1cc(OCCN2CCCCC2)nc2ccccc12
27: COc1ccc(OC)c(CN2CCN(C(=O)[C@@H](NC(=O)c3cccc(C)c3)C(C)C)CC2)c1
28: CC(C)c1nc(SCC(=O)NCc2ccccc2)n[nH]1
29: CCOC(=O)N1CCC(n2c(SCC(=O)N3CCCC3)nc3ccccc3c2=O)CC1
30: COc1ccc(C(=O)OCC(=O)Nc2nnc(-c3ccccc3)o2)cc1
31: c1csc(-c2noc(CN3CCc4sccc4C3)n2)c1
32: COc1ccc(/C=N/NC(=O)c2cccc(Br)c2)cc1CSc1ccccn1
Screen / compound no.	25	26	27	28	29	30	31	32
D2 potentiator	-21	-39	-23	-17	-9	-12	-8	-6
Sfp PPTase inh	13%	13%	/	16%	8%	5%	-11%	-2%
ClpP mod	-3.8%	-4.2%	-0.8%	2.9%	-2.2%	-0.8%	-0.5%	?
gsp ag	13%	0%	18%	9%	?	-23%	8%	-38%[inhibitor]
Menin-MLL FL inh	/	0.4	/	0.8	-1.0	-0.2	5.8	4.4
gsp antag	-3%	3%	-5%	4%	-5%	-1%	8%	-1%
TRPV1 PAM	-14	10	-11	-4	-17	-6	4	8

33: CC(=O)NC(CC(=O)O)c1ccc(F)cc1 (stereo unspecified)
34: CCOC(=O)c1ccc(NC(=O)c2cc3c(C)nn(-c4ccccc4Cl)c3s2)s1
35: Cc1ccc(Nc2cc(-c3ccccc3)nc3ncnn23)cc1
36: O=C(Nc1nc2ccsc2c(=O)s1)c1ccc(F)cc1
37: CCOP(=O)(OCC)c1ccccc1OCP(C)(=O)COc1ccccc1P(=O)(OCC)OCC
38: CCOC(=O)C1CCN(C(=O)c2ccc(CNS(=O)(=O)c3ccc(OC)cc3)cc2)CC1
39: CC(Sc1nnc(N)s1)C(=O)NC1CCCCC1C (stereo unspecified)
40: N#C/C(=C/c1ccc(N2CCOCC2)o1)C(=O)Nc1ccccc1
Screen / compound no.	33	34	35	36	37	38	39	40
D2 potentiator	1	-4	-8	1	-6	2	-34	-8
Sfp PPTase inh	12%	-12%	5%	3%	11%	20%	/	?
ClpP mod	/	3.8%	-4.1%	/	/	1.1%	-5.8%	/
gsp ag	-10%[15.4 µM]	-4%[15.4 µM]	2%[15.4 µM]	12%[15.4 µM]	-4%	-37%[inhibitor]	-7%[15.4 µM]	-12%[15.4 µM]
Menin-MLL FL inh	-1.8	1.2	1.2	-0.2	-4.0	0.9	/	?
gsp antag	21%	3%	-12%	?	3%	-18%	7%	?
TRPV1 PAM	4	-5	-6	5	-44	15	1	-14

41: COc1ccccc1N1CCN(Cc2cc(=O)n3ccsc3n2)CC1
42: Cc1cc(N2CCOCC2)nc2ccc(NC(=S)NCCN(C)C)cc12
43: COc1ccc(N2CCN(c3ccc4nnc(CCC(=O)Nc5ccc(C)cc5)n4n3)CC2)cc1
44: CN1CCN(c2ccc(S(=O)(=O)N3CCCCC3)cc2NC(=O)CSC(C)(C)C)CC1
45: CC(=O)Nc1ccc(S(=O)(=O)Nc2cc(-c3ccccc3)nn2C)cc1
46: Cc1nn(-c2ccccc2)c(C)c1NC(=O)COC(=O)CC(C)c1ccccc1 (stereo unspecified)
47: CCn1cc(C(=O)N2CCOCC2)c(=O)c2cc(S(=O)(=O)N(C)C3CCCCC3)ccc21
48: COc1cc(/C=C/C(=O)O)ccc1OS(=O)(=O)c1c(C)cc(C)cc1C
49: COc1ccc(CN=C2NC(=O)CC(C(=O)Nc3cc(C)cc(C)c3)S2)cc1 (stereo unspecified)
50: Cc1cc(Cl)ccc1Oc1ncnc2oc(-c3ccccc3)cc12
51: COc1ccccc1C(=O)Nc1ccc(C(=O)Nc2ccccc2C(=O)O)cc1
Screen / compound no.	41	42	43	44	45	46	47	48	49	50	51
D2 potentiator	-49	-7	-8	-8	-11	-69	-2	-1	2	2	5
Sfp PPTase inh	-7%	-1%	-8%	/	24%	/	-4%	/	-4%	-10%	-7%
ClpP mod	-9.1%	/	0.5%	0.6%	2.6%	/	-4.7%	-4.3%	111%	25µM*	-3.2%
gsp ag	5%	-28%	-14%	19%	-6%[15.4 µM]	-14%[15.4 µM]	?	?	-3%	16%	?
Menin-MLL FL inh	-0.6	-1.9	-7.9	/	3.4	/	9.8	/	/	7.4	/
gsp antag	-2%	1%	-15%	/	12%	7%	5%	?	13%	3%	35µM*
TRPV1 PAM	10	6	10	/	4	-9	16	2	-2	-2	-14
